HIV Env fusion = inhibitors of HIV Env-mediated cell fusion; 360,000 tested, 1.1% active; inhibition, % at 12.3 µM; HeLa-JRFL Env/CEM21 cell fusion, luciferase;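 active means mean replicate inhibition score of at least 50 and every replicate individually at or above 50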;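 further: 0% = plate neutral controls and 100% = maraviroc near 300 nM; one replicate is shown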
PABP FP inh = PABP-poly(A) binding inhibition | AID 2014 | inhibition, % at 35 µM | PABP-poly(A) RNA binding, fluorescence polarization | 290,000 tested, 1% active | P11940;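 active means 50% or more with normal probe brightness, or confirmed in later tests; about a fifth of its hits are not listed in these tables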;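 further: calls also rest on retests at 20 µM and on dose response follow-up; controls were probe without protein and protein plus probe with vehicle; some compounds called inactive have numbers as strong as hits; many hits fall short of the cut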
MT1-MMP act inh = inhibitors of human MT1-MMP activation. HT1080 RFP-PRO-GFP cells, GFP/RFP ratio fluorescence, overnight; percent of plate control window, DMSO zero. AID 651647. 360,000 tested, 0.061% active. P50281. GFP/RFP ratio change, % at 20 µM;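 active means GFP/RFP ratio change of at least 30% with cell ATP level not reduced by more than half and red fluorescence within 50% of control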; further: strong numbers were not always called active
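system = RFP-PRO-GFP reporter HT1080 cells | dosing = 20 µM single dose, 1% DMSO | timing = overnight cell settling, then overnight compound exposure, 37 °C, 5% CO2 | read-out basis = GFP/RFP fluorescence ratio | controls = DMSO and RFP-L50D-GFP cell wells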
Yeast UUG start = alters start codon recognition fidelity in yeast; S. cerevisiae UUG-firefly luciferase reporter, luminescence/redox ratio; activity score, % at 18.7 µM; 350,000 tested, 0.13% active; AID 602363;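 active means replicate mean at a twofold rise or more, about +100% in these data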;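 further: firefly luciferase made from a UUG start codon reports start codon fidelity; reporter light over untreated wells divided by growth signal over untreated wells; some hits fall short of that in this replicate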
CSC inhib = cancer stem cell inhibition; inhibition, % at 7.5 µM; AID 2717; 300,000 tested, 1.1% active; cancer stem cell-like cells viability, luminescence;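 active means mean at 75% or more and at least half the replicates too; tested in HMLE shEcad cells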;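 further: 0% = median of negative and 100% = median of positive control wells; the first replicate is given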
eIF4H inh = inhibitors of RNA binding by human eIF4H; eIF4H fluorescence polarization binding assay; inhibition, % at 35 µM; 290,000 tested, 0.94% active;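 active means 50% or more with normal probe brightness, or confirmed in later tests; about a fifth of its hits are not listed in these tables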;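 further: calls also rest on retests at 20 µM and on dose response follow-up; 0% = protein and probe with vehicle and 100% = probe without protein; strong numbers were not always called active; many hits fall short of the cut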
Rce1 inh = blocks yeast Ras-converting enzyme; yeast membranes, quenched prenylated peptide cleavage fluorescence; calls only; 290,000 tested, 0.27% active;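 active means fall in fluorescence gain of 50% or more versus controls, with final raw signal at or below 3038400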;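 further: plate controls were neutral control wells for no effect and wells lacking membranes for full effect; tested at 10 µM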
Target sequence (Q03530 whole entry, looked up): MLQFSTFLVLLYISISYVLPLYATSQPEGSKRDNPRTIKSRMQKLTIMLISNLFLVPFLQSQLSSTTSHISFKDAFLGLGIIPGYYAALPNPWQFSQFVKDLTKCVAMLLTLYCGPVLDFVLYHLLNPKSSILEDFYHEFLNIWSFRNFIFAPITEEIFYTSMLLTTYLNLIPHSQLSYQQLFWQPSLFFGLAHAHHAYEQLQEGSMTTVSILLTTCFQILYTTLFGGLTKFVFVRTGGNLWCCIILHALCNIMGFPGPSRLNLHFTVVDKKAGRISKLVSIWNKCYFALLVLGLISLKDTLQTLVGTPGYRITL
eIF4H inh retest = recorded beside eIF4H inh, whose call it bears; inhibition, %; compound at 20 µM; confirmation average;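 mean of two retest wells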
PABP FP inh retest = further read-out of PABP FP inh, marked with its call; inhibition, %; compound at 20 µM; confirmation repeats;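 mean of two retest wells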
MT1-MMP act inh RFP = second read-out of MT1-MMP act inh, no call of its own (marks repeat the call); RFP signal change, %; measured here: RFP expression control read;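 0 = vehicle wells; hits needed this value within 50% of zero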
* = called active by the depositor; i = inactive; x = no result given; + = active, no number.

SMILES	HIV Env fusion	PABP FP inh	MT1-MMP act inh	MT1-MMP act inh RFP	Yeast UUG start	CSC inhib	eIF4H inh	Rce1 inh	others
COc1ccc(Cl)cc1NC(=O)CN(C)C(C)C(=O)NC(=O)NC1CCCCC1 (configuration not stated)	15.3	x	-4.2	-6.8	15.0	37.6	x	i
O=C(CCN1C(=O)C2CC=C(Cl)CC2C1=O)NC1CCCCC1 (configuration not stated)	-41.8	-0.2	-4.1	-1.6	0.9	10.5	8.4	i
CSc1cccc2sc(NC(=O)C3=COCCO3)nc12	-26.6	x	7.5	2.2	-10.6	-4.9	x	i
COc1ccc(C(C)=O)cc1CSc1nc2cc(Cl)ccc2o1	x	34.6*	2.7	-3.4	-2.5	43.5	65.2*	i	eIF4H inh retest=94.9*;PABP FP inh retest=75.7*
CC(=O)N1CCc2c(sc(NC(=O)CS(=O)(=O)c3ccc(F)cc3)c2C(N)=O)C1	-132.7	x	-1.4	5.3	-0.6	-1.7	x	i
CC(C)(C)C(=O)NC(=S)Nc1ccccc1C(N)=O	-10.4	3.3	-0.2	3.6	-9.2	x	2.0	i
O=C1NC(CCc2ccccc2)C(=O)N1Cc1ccc(Br)cc1 (configuration not stated)	18.4	-5.7	2.0	-1.1	-12.5	-2.3	0.6	i
COc1ccccc1C(=O)Nc1ccc2c(c1)CN(C(=O)CSC)CC2	-25.8	6.5	0.3	1.4	-8.8	34.8	-0.3	i
Cc1cc2cc3c(cc2nc1SCC(=O)OC(C)C)OCO3	8.3	-4.2	-2.0	-4.2	9.5	x	-2.8	i
O=C(CS(=O)(=O)c1cn(CC(=O)N2CCCC2)c2ccccc12)Nc1ccccc1F	-117.5	3.6	-2.2	-0.9	22.8	-1.5	-5.2	i
CCOC(CNC(=O)C(=O)Nc1cc2c3c(c1)CC(=O)N3CCC2)OCC	-3.6	1.3	0.6	2.9	-15.9	3.7	3.5	i
CCn1c(=O)n(CC(=O)Nc2cccc(OC)c2)c(=O)c2ccccc21	x	2.4	-2.2	1.3	-16.4	-1.4	8.9	i
COc1ccccc1CNC(=O)CN(c1ccc(C)cc1)S(=O)(=O)c1c(C)nn(C)c1C	-50.6	-6.4	5.4	3.7	-1.9	-4.5	0.5	i
CCOc1cc(C)c(C(C)C)cc1S(=O)(=O)N1CCN(C)CC1	x	9.8	-6.1	0.0	-11.6	-10.7	8.2	i
Cc1ccc(S(=O)(=O)NNC(=O)c2snnc2C)cc1	-2.3	-2.3	1.5	5.1	-11.7	4.3	4.4	i
O=C(CCC1CCN(Cc2ccccc2O)CC1)NC1CC1	-5.6	-6.4	-1.4	2.5	0.7	-4.1	4.9	i
COc1ccc(CC2S/C(=N/N=C/c3ccc(O)cc3)NC2=O)cc1 (configuration not stated)	-13.4	26.5	5.9	0.4	-12.2	-1.7	-4.4	i
CCc1nnc(NC(=O)CSc2nc3c(c(=O)n2C)SC(C)C3)s1 (configuration not stated)	-2.1	-15.3	1.2	-3.5	-3.8	15.3	-7.7	i
COc1ccccc1-c1cc(NC=O)c2ncc(-c3ccc(F)cc3)n2c1	17.1	x	-15.3	-22.4	-15.8	x	x	x
COc1ccc(OC)c(Nc2nc(-c3ccc(O)c(O)c3)cs2)c1	x	88.7*	-2.7	-11.0	x	60.5	65.5*	i
CC(=O)Nc1ccc(S(=O)(=O)N(Cc2ccccc2)C(C)C)cc1	84.0*	-0.8	-1.4	-6.9	-10.1	-0.3	13.4	i
COc1cccc(CNC2CCCc3ccccc32)c1OC (configuration not stated)	11.2	-2.8	0.6	1.4	x	-6.3	13.6	i
CN(C(=O)c1ccc2c(c1)OCO2)C1CCCCC1	-15.0	3.8	3.8	4.6	-14.0	-21.3	3.3	i
O=C(Nc1ccc(N2CCOCC2)c(S(=O)(=O)Nc2ccc(Cl)cc2)c1)c1ccc(=O)[nH]n1	x	x	2.8	-2.3	2.5	11.4	x	x
CC(C)CCN(C(=O)C1CSC2(C)CCC(=O)N12)c1c(N)n(Cc2ccccc2)c(=O)[nH]c1=O (configuration not stated)	8.6	x	0.3	1.3	x	-9.9	x	i
Other records follow:
SMILES	HIV Env fusion	PABP FP inh	MT1-MMP act inh	MT1-MMP act inh RFP	Yeast UUG start	CSC inhib	eIF4H inh	Rce1 inh	others
O=C(Nc1ccc(S(=O)(=O)NC2=NCCCCC2)cc1)c1ccc([N+](=O)[O-])s1	-8.6	x	0.7	-21.6	0.9	54.9	x	i
COCCCNC(=O)COc1cc(C)c(Cl)c(C)c1	-14.2	-10.2	5.9	3.8	-6.2	-17.8	-23.0	i
c1ccc(C[n+]2cccc3c4ccccc4ccc32)cc1	x	13.4	-8.7	-23.7	-13.1	x	-0.3	+
COc1cc2c(cc1OC)CN(CC(=O)Nc1cccc(C)c1)CC2	-15.3	-4.4	-7.5	4.2	-18.7	x	10.0	i
O=C(O)c1ccc(N2C(=O)c3cccc4cccc(c34)C2=O)cc1	-7.0	11.4	-0.4	2.8	-18.6	-11.2	6.5	i
COc1ccc(N2CCN(CC(O)COc3ccccc3[N+](=O)[O-])CC2)cc1 (configuration not stated)	-15.1	-12.7	6.4	-0.4	x	3.4	6.2	i
COc1ccc(NC2c3ccccc3C(=O)N2c2ccccn2)cc1 (configuration not stated)	15.3	15.5	3.5	2.9	-22.6	-0.7	9.1	i
CCCCn1c(C)cc(C)c(S(=O)(=O)c2ccccc2C)c1=O	x	4.1	-11.1	-3.7	-15.1	-13.4	-5.0	i
CN(C)c1ccc(/C=N/NC(=O)c2nonc2N)cc1[N+](=O)[O-]	1.6	7.8	0.1	-1.1	-3.8	-8.9	-0.2	x
Cc1ccc(C)c(C(=O)COC(=O)Cn2c(C)csc2=O)c1	-1.3	-7.1	2.1	2.3	-14.0	x	-1.0	i
CC(Oc1ccc2c3c(c(=O)oc2c1)CCCC3)C(=O)NCC(O)c1ccccc1 (configuration not stated)	-3.9	-9.3	-5.4	-1.6	-21.5	-12.0	-10.5	i
CC1CCCCN1CCCNC(=O)CN1C(=O)c2cccnc2Oc2ccc(Cl)cc21 (configuration not stated)	6.0	5.7	-1.4	0.0	-9.1	0.8	-6.0	i
O=C(COc1ccccc1Cl)NC(=O)NC1CCCCC1	-34.7	x	7.5	3.5	-0.7	x	x	i
O=C(NCCCNCCCNC(=O)c1ccccn1)c1ccccn1	-59.6	-5.5	-6.4	0.2	-9.8	11.3	-2.4	i
Cc1ccccc1-c1cc2nc(NCc3cccnc3)n(C)c(=O)c2s1	9.8	x	9.3	2.7	-16.9	x	x	x
CC(=O)Nc1ccc(NC(=O)CCCSc2nc3ccccc3[nH]2)cc1	-6.3	6.0	-0.4	0.4	-10.1	-14.5	4.3	i
COc1cc(S(=O)(=O)N2CCOCC2)ccc1NC(=O)CN1c2cccc3cccc(c23)S1(=O)=O	27.7	-0.6	13.4	9.3	-7.2	-7.5	13.1	i
Cn1c(Nc2ccc(Cl)cc2)cc(=O)n(C)c1=O	-2.2	-4.7	-3.3	-1.2	-15.2	3.0	4.1	i
CCN(CC)S(=O)(=O)c1ccc(C)c(NC(=O)CSc2nnnn2C)c1	0.6	x	1.1	2.6	-10.0	-18.3	x	x
COc1ccc(-n2c(=O)c(CCC(=O)NCCc3ccccc3F)nc3ccccc32)cc1	5.1	x	11.6	0.9	-6.4	x	x	x
Cc1ccc(NC(=O)CCc2ccc(C)o2)cc1	-7.4	3.6	0.2	0.3	-23.7	1.5	-0.4	i
CC(C)(C)c1ccc(CC(=O)N2CCC2(C)C(=O)NCc2cccs2)cc1 (configuration not stated)	9.7	x	4.1	-1.7	2.4	x	x	x
COc1ccc(Cl)cc1NC(=O)C/C(C)=N/NC(=O)c1ccc(O)cc1	10.3	-10.5	-2.1	0.7	-15.4	1.3	16.2	i
COC(=O)c1ccc(NC(=S)NC2CCCCC2)cc1	-8.2	1.8	14.1	-1.1	-23.7	-5.5	-4.6	i
Cn1c(=O)c2c(ncn2CC(=O)N2CCc3ccccc3C2)n(C)c1=O	x	-5.5	1.7	6.1	-8.8	4.5	-4.8	i

Sorted by heavy-atom count (descending): part of the list above
SMILES	HIV Env fusion	PABP FP inh	MT1-MMP act inh	MT1-MMP act inh RFP	Yeast UUG start	CSC inhib	eIF4H inh	Rce1 inh	others
COc1cc(S(=O)(=O)N2CCOCC2)ccc1NC(=O)CN1c2cccc3cccc(c23)S1(=O)=O	27.7	-0.6	13.4	9.3	-7.2	-7.5	13.1	i
COc1ccc(-n2c(=O)c(CCC(=O)NCCc3ccccc3F)nc3ccccc32)cc1	5.1	x	11.6	0.9	-6.4	x	x	x
O=C(CS(=O)(=O)c1cn(CC(=O)N2CCCC2)c2ccccc12)Nc1ccccc1F	-117.5	3.6	-2.2	-0.9	22.8	-1.5	-5.2	i
CC(Oc1ccc2c3c(c(=O)oc2c1)CCCC3)C(=O)NCC(O)c1ccccc1 (configuration not stated)	-3.9	-9.3	-5.4	-1.6	-21.5	-12.0	-10.5	i
COc1ccc(Cl)cc1NC(=O)CN(C)C(C)C(=O)NC(=O)NC1CCCCC1 (configuration not stated)	15.3	x	-4.2	-6.8	15.0	37.6	x	i
O=C(Nc1ccc(S(=O)(=O)NC2=NCCCCC2)cc1)c1ccc([N+](=O)[O-])s1	-8.6	x	0.7	-21.6	0.9	54.9	x	i
Cc1ccccc1-c1cc2nc(NCc3cccnc3)n(C)c(=O)c2s1	9.8	x	9.3	2.7	-16.9	x	x	x
COc1ccc(NC2c3ccccc3C(=O)N2c2ccccn2)cc1 (configuration not stated)	15.3	15.5	3.5	2.9	-22.6	-0.7	9.1	i
COc1ccc(OC)c(Nc2nc(-c3ccc(O)c(O)c3)cs2)c1	x	88.7*	-2.7	-11.0	x	60.5	65.5*	i
Cc1cc2cc3c(cc2nc1SCC(=O)OC(C)C)OCO3	8.3	-4.2	-2.0	-4.2	9.5	x	-2.8	i
CSc1cccc2sc(NC(=O)C3=COCCO3)nc12	-26.6	x	7.5	2.2	-10.6	-4.9	x	i
COCCCNC(=O)COc1cc(C)c(Cl)c(C)c1	-14.2	-10.2	5.9	3.8	-6.2	-17.8	-23.0	i

(listing goes on)
SMILES	HIV Env fusion	PABP FP inh	MT1-MMP act inh	MT1-MMP act inh RFP	Yeast UUG start	CSC inhib	eIF4H inh	Rce1 inh	others
Cc1ccccc1CCN1CCCC(CN(C)CC(C)(C)C)C1 (configuration not stated)	7.3	6.4	-1.0	2.2	-17.4	5.1	-2.9	i
O=C1C=C(c2ccccc2)C[C@@H](c2ccc3c(c2)OCO3)C1	-9.3	x	1.1	1.5	-4.0	22.5	x	x
CN(C)S(=O)(=O)c1ccc(N2CCCC2)c(C(=O)N2CCC(C(N)=O)CC2)c1	-11.9	x	0.3	0.8	x	-15.0	x	i
FC(F)(F)c1cc(CCN2C(=S)NC[C@@H]2CC2CCCCC2)cc(C(F)(F)F)c1	48.9	3.2	1.6	-3.7	-23.1	97.5*	-2.3	i
COC(=O)CSc1nnc(-c2ccccn2)n1N	2.6	4.7	-2.8	0.9	-9.1	-10.4	-2.9	i
Cc1cc(Cl)nc(-c2ccccc2O)n1	3.6	5.1	0.0	-0.4	x	-18.4	-3.8	i
O=C(NCC1OCCc2ccccc21)c1ccco1 (configuration not stated)	x	5.9	-2.4	3.7	322.9*	-12.5	-11.7	i
CCCCn1c(N)c(N(CCOC)C(=O)COC(=O)c2ccccc2NCCO)c(=O)[nH]c1=O	10.5	x	0.7	3.9	-9.3	x	x	x
O=C(Nc1cccc(O)c1)C(=O)Nc1ccccn1	x	-4.0	3.6	2.4	-71.4	13.5	-1.7	i
O=C(O)CC(NC(=O)COc1ccccc1)c1cccc([N+](=O)[O-])c1 (configuration not stated)	13.9	2.1	-1.1	0.8	-12.2	-5.3	-0.8	i
NS(=O)(=O)c1ccc(CCNC(=O)c2cccc(OC(F)F)c2)cc1	2.9	-5.0	-3.7	-1.7	-25.5	-16.3	-2.6	i
